CtBP-E1A blk = qHTS Assay for Inhibitors of the CtBP/E1A Interaction | CtBP / adenovirus E1A interaction (AlphaScreen) | activity change, % (no concentration beside the values) | 340,000 compounds, 0.49% hits | AlphaScreen GST-E1A/His-CtBP binding, 1536-well; active compounds read low; control for the full effect not named in the record; in the data active means activity change below about -65%; inconclusive means about -30% to -65%; inactive means above about -30%; also: % is scaled to controls: 0 for no effect and ±100 for the full control effect
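Protein mix (5X: 125 nM each GST-E1A, His-CtBP) was incubated with pinned compound 2 h at 37 deg C in dark, in 50 mM Tris pH 8.0 buffer with 300 mM NaCl. Glutathione donor and nickel acceptor beads followed; AlphaScreen signal read after 1 h.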
TRPML1 ag = qHTS for Agonists of the Human Mucolipin Transient Receptor Potential 1 (TRPML1). activation, % (concentration not given with the values). 410,000 compounds, 0.12% hits. TRPML1-expressing cells, Ca2+ dye fluorescence, FDSS; host cell line not named in the record; reference of the full effect not given here; in the data active = activation above about 50%; inconclusive = about 30% to 50%; inactive = below about 30%; also: 0% is about no effect; the text of the record puts the active cut at 80%
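In this qHTS format, compounds were pin-transferred onto Ca8-dye-loaded TRPML1-DL cells induced with Tet overnight, and intracellular Ca2+ fluorescence was recorded kinetically for 110 s after a 10 s baseline. A subsequent 4uM final 54-4 (EC80) addition followed by a second 110 s read served as the antagonist phase.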
D2 agonist = Beta-Arrestin HTS for Positive Allosteric Modulators of the Human D2 Dopamine Receptor: Agonists. DiscoveRx PathHunter D2 beta-arrestin, luminescence, 90 min; 100% = 57 uM dopamine signal. activation, % (concentration not given with the values). 360,000 compounds, 0.084% hits. AID 624465, 2012; in the data active = activation above about 40%; inconclusive = about 15% to 40%; inactive = below about 15%; also: the text of the record calls up to 30% inactive
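Agonist mode: compounds alone added to overnight-plated D2 PathHunter cells for 90 min at 37 C, with 57 uM final dopamine (EC100) defining full response. Beta-arrestin recruitment detected by chemiluminescent reagent, read after 1 h at ambient temperature.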
PINK1 expr mod = A Quantitative High throughput Screen to Identify Chemical Modulators of PINK1 Expression | PINK1 immunofluorescence, high-content cytometry, 24 h | Potency, µM (doses to about 76.6 µM), inactives show top-dose activation (PINK1 increase), hits mostly activators | 410,000 compounds, 0.2% hits; active = well fitted activation curve with a large enough effect; inconclusive = small, poorly fitted or top-dose-only effect; inactive = flat fitted curve, though single readings scatter; cell line not stated here;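 also: potency is read from the fitted curve at half-maximal effect; % of control where 0% means no effect; nearly all actives have a fitted effect of over 65% in size; a mitochondrial uncoupler was the plate control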
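Stable cell line treated 24 h with compounds at 5 concentrations (CCCP controls), then fixed and immunostained for PINK1 plus nuclear and cell stains; PINK1 immunofluorescence quantified by laser-scanning microplate cytometry.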
D2 potentiator = Beta-Arrestin HTS for Positive Allosteric Modulators of the Human D2 Dopamine Receptor: Potentiators. potentiation, % (concentration not given with the values). D(2) dopamine receptor (Homo sapiens), P14416. 360,000 compounds, 0.23% hits. DiscoveRx D2 beta-arrestin cells, luminescence, 90 min; 100% = 57 uM dopamine signal. AID 624464, 2012; active = potentiation of 50% or more; inconclusive = 30% to 50%; inactive = 30% or less;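 also: tested on top of an EC20 dose of dopamine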
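D2 cells co-treated with compound plus 50 nM dopamine (EC20) for 90 min at 37 deg C to detect potentiation. Beta-arrestin recruitment was read as enzyme-fragment luminescence after 1 h at ambient temperature. Full response was set by 57 uM dopamine.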
Six1-Eya2 inh = qHTS Assay for Inhibitors of the Six1/Eya2 Interaction; Homeobox protein SIX1 (Homo sapiens) + Protein phosphatase EYA2 (Homo sapiens), …; 360,000 compounds, 0.56% hits; activity change, % (concentration not given with the values); AlphaScreen GST-Six1/His-Eya2 binding, biochemical; active compounds read low; control for the full effect not named in the record; in the data active = activity change below about -65%; inconclusive = about -30% to -65%; inactive = above about -30%; also: % is scaled to controls: 0 for no effect and ±100 for the full control effect
Target sequence (O00167 whole entry, looked up): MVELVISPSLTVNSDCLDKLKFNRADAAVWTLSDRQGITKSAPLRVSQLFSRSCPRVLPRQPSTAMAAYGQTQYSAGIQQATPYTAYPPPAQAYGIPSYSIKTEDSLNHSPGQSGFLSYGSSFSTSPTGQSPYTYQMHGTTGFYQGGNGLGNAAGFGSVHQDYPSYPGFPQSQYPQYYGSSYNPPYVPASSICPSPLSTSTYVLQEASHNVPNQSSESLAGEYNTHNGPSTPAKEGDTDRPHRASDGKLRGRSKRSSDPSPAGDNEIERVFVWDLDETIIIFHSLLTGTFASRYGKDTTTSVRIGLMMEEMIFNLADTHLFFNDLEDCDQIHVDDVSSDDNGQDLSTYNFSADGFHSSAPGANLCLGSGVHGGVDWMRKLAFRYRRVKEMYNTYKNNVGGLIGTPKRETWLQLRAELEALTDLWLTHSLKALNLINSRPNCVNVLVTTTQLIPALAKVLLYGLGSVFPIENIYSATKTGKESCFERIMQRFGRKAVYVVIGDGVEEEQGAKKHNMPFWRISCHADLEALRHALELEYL
Target sequence (Q15475 whole entry, looked up): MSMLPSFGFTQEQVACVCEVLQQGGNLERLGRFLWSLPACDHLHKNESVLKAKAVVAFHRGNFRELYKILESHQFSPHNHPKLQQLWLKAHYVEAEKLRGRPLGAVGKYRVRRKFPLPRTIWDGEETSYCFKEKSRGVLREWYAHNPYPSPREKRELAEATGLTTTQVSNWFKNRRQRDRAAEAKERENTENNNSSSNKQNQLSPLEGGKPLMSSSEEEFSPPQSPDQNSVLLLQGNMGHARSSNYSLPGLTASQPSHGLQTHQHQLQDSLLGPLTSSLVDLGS
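GST-Six1 + His-Eya2 (5X stock: 250/500 nM); Tris pH 8.0, 300 mM NaCl, 0.05% BSA, 0.02% Tween 20; GSH donor/Ni acceptor beads; 1 h 37 °C dark; AlphaScreen readout.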
Numbers without * were called inactive; ? = inconclusive; nt = no result given; [ ] = dose if it differs, or a comment. Rows were taken by chance (roughly 1.3% active in at least one column).

SMILES	CtBP-E1A blk	TRPML1 ag	D2 agonist	PINK1 expr mod	D2 potentiator	Six1-Eya2 inh
O=C(O)c1cn(-c2ccccc2)nc1C(=O)O	7	-0.8	0.1	1.1%	5	2
O=C(c1nc2ccccn2c1CN1CCCC(O)C1)N1CCN(C2CCCCC2)CC1 (configuration not stated)	-24	0.6	-4.4	-0.8%	-44	-4
COc1ccc(SCc2noc(C(=O)NC(C)C)c2C(=O)O)cc1	-3	-0.8	2.2	0.8%	-9	0
CCOc1ccc(Br)cc1S(=O)(=O)NCc1ccc(S(N)(=O)=O)cc1	8	-0.5	-2.6	0.0%	-7	2
O=c1c2ccccc2nc(SCc2nc3ccccc3s2)n1CCCO	-10	1.3	3.0	1.6%	-9	-15
Nc1nnc(CC(=O)N/N=C/c2ccc(-c3ccccc3)o2)s1	-12	0.9	-0.3	0.5%	-3	-14
CCOC(=O)c1cccc(NC(=O)CSc2nnc(COc3ccc(Cl)cc3)o2)c1	4	0.8	-2.5	4.3%	-19	1
CCCc1cc(C(=O)N2CCCC(N3CCN(c4ccccc4F)CC3)C2)n(C)n1 (configuration not stated)	-3	0.5	-2.0	5.9%	-29	-2
CCN(CCCNC(=O)CCNC(=O)Cn1cnc2ccccc2c1=O)c1cccc(C)c1	1	0.9	-2.1	-0.8%	6	-2
Cc1ccc(CNC(=O)COc2ccc(C(=O)c3ccc(F)cc3)cc2)cc1	-5	-0.6	-6.9	1.1%	-7	1
O=C1N[C@@H](c2ccccc2)COC(=O)[C@@H](Cc2ccc(F)cc2)CC/C=C/C[C@@H]1CC(=O)N(CCO)Cc1ccccc1	-3	0.6	1.0	-1.1%	nt	-5
COc1cc(NC(=O)C(C)N2CCN(C(=O)C3CC3)CC2)cc(OC)c1 (configuration not stated)	2	1.5	3.8	0.3%	0	-5
CN(C)CCNc1ncnc2c1ncn2[C@H]1CN(Cc2ccc3c(c2)OCO3)C[C@@H](CO)O1	-4	-0.4	-2.6	0.6%	-8	6
N#Cc1nc(-c2ccco2)oc1N1CCN(c2cccc(Cl)c2)CC1	8	-0.5	0.1	1.3%[38.3 µM]	-9	?
COCCN(C(=O)CC1C(=O)NCCN1Cc1ccc(-c2ccccc2)cc1)C(C)C (configuration not stated)	nt	0.5	-9.4	0.4%	-5	-6
O=C(COc1ccc(S(=O)(=O)N2CCCC2)cc1)N1CCN(c2ccccc2F)CC1	1	2.0	-1.7	-0.6%	-5	-1
CCCc1cc(=O)oc2cc(C)cc(OCC(=O)NCc3ccncc3)c12	0	-1.1	-2.9	1.3%	7	-3
CC(=O)c1sc2nc(C)cc(C)c2c1N	23	-0.5	-0.6	-4.9%[38.3 µM]	-4	8
COCCN1CCN(C(=O)C2CCC(=O)N(CCCc3ccccc3)C2)CC1 (configuration not stated)	4	0.0	12	-2.3%	-5	5
C/C(=N/OC(=O)c1ccc(C(F)(F)F)cc1)c1oc(C)nc1C	-2	0.1	-11	-1.9%	-6	23
OC(c1cccc(Cl)c1)c1ncc(-c2cccc3ccccc23)[nH]1 (configuration not stated)	-23	-0.9	-3.8	7.5%	-17	?
Cc1ccc(-c2noc(CCC(=O)NCC3CCCO3)n2)cc1 (configuration not stated)	-8	-0.1	-2.3	4.6%[38.3 µM]	9	-12
O=C(CSc1nnc(-c2cccs2)n1CC1CCCO1)c1cc2ccccc2o1 (configuration not stated)	-2	-0.1	-5.3	-1.0%	-16	-6
COC(=O)[C@@]12CCCCN1[C@H](c1ccc(-c3cc(C(C)=O)cs3)cc1)[C@H]1C(=O)N(C)C(=O)[C@H]12	2	-0.5	-0.1	4.2%	-2	-3
COc1cc2ccccc2cc1C(=O)NC1CCCCC1	4	1.2	-5.7	4.8%	-3	-6
Next section
SMILES	CtBP-E1A blk	TRPML1 ag	D2 agonist	PINK1 expr mod	D2 potentiator	Six1-Eya2 inh
CC1(C)CC(C(=O)Nc2nccs2)CCO1 (configuration not stated)	-1	1.2	-1.1	-2.0%	-10	-5
COC(=O)c1c(NC(NC(=O)CC(C)C)C(Cl)(Cl)Cl)sc2c1CCC2 (configuration not stated)	11	2.9	3.7	?	2	5
O=C(c1ccc2ncsc2c1)N1CCN(c2ccc(O)cc2)CC1	3	-0.5	2.9	-0.1%	28	-1
O=C(Nc1ccccc1C(=O)NCc1cccnc1)c1ccc(Cl)cc1Cl	-23	0.3	-1.3	3.4%	-12	-14
COc1cccc(C(=O)Nc2ccc(N3CCN(C(=O)c4ccco4)CC3)cc2)c1	14	-1.1	-0.4	13%	10	-3
Cc1ccc(-c2ccc(CCC(=O)O)n2-c2ccc(C(=O)O)cc2)cc1	nt	0.0	2.1	0.2%	0	1
CCn1nccc1C(=O)Nc1cc(Cl)cc(Cl)c1	8	0.4	2.6	5.1%	3	14
Cc1ccc(C)c(NC(=O)CCC(=O)N/N=C/c2ccc3c(c2)OCO3)c1	-11	2.7	-0.8	2.3%	-3	-2
Cc1onc(-c2ccccc2)c1C(=O)NNC(=O)c1ccccc1	nt	-0.9	-5.6	-1.0%	0	-5
Cc1cc(C)cc(N(CC(=O)NCc2ccc(F)cc2)C(=O)CCC(=O)Nc2ccccn2)c1	16	-0.3	-5.7	2.4%	-3	7
COc1ccc(S(=O)(=O)c2c[nH]c(=S)[nH]c2=O)cc1Cl	1	0.5	-3.7	0.0%	-9	1
Cc1ccc(-c2n[nH]c(=S)n2/N=C/c2sccc2C)cc1	-7	2.2	-0.5	3.4%	-3	-4
CCn1ncc(Br)c1C(=O)Nc1ccc(Cl)cn1	12	1.4	-1.7	-2.0%[38.3 µM]	-5	5
O=C(CCCn1c(=O)[nH]c2cc(Cl)ccc2c1=O)NCC1CCCO1 (configuration not stated)	5	0.8	-3.2	1.5%	-5	5
CS(=O)(=O)N(CC(=O)N1CCN(Cc2ccccc2)CC1)c1cccc(F)c1	4	-0.4	11	2.0%	-1	5
CC(=O)Nc1ccc(C(=O)N2CCCc3ccccc32)cc1	0	0.4	6.0	-0.4%	-1	4
CC(C)C[C@H](NC(=O)N1CCn2c1nc1ccccc12)C(=O)N[C@@H](C(=O)O)c1ccccc1	5	nt	-2.4	0.2%	-15	-5
COc1cc(NC(=O)c2ccc(Br)o2)ccc1NC(=O)C(C)C	-1	-0.8	-4.1	1.3%	-29	0
O=C(COC(=O)C1COc2ccccc2O1)NC(=O)NC1CCCC1 (configuration not stated)	0	-0.2	-3.6	0.3%	-7	-9
COc1ccc(N2CCN(C(=O)c3cn(Cc4ccccc4)nc3-c3cccnc3)CC2)cc1	-7	-0.3	5.5	-0.8%	0	-6
C/C(=N\NC(=O)c1ccc(Br)cc1)c1cccc(NC(=O)c2cccnc2)c1	0	0.9	-0.1	2.6%	-3	0
CCN(CC)S(=O)(=O)c1cc(NC(=O)C(C)Nc2ccccc2N2CCOCC2)ccc1C (configuration not stated)	-6	1.2	-3.0	0.8%	0	-12
COC(=O)c1cc([N+](=O)[O-])c(C)c(C)n1	-4	-0.1	0.3	-0.3%	-8	-3
O=C(NC(Cc1cccc(F)c1)C(=O)O)C1CCCCC1 (configuration not stated)	6	-0.6	-0.6	0.8%	-5	0
COc1ccc(CN(C)C(=O)c2cccc(Oc3ccccc3)c2)c(OC)c1OC	6	1.9	-1.1	-0.2%	3	-2
The listing continues:
SMILES	CtBP-E1A blk	TRPML1 ag	D2 agonist	PINK1 expr mod	D2 potentiator	Six1-Eya2 inh
N=C(N)SCc1ccc(Cl)c2ccccc12	13	0.9	-6.1	?	-28	15
CC(C)NC(=O)c1cc2nc(-c3ccco3)cc(C(F)(F)F)n2n1	-5	-0.2	-0.3	nt	-12	-2
CCOC(=O)c1ccccc1NC(=O)CN(c1cccc(OC)c1)S(C)(=O)=O	5	0.7	-4.0	-4.1%	1	-1
CO/C=C/C#CC1(O)CCN(C)CC1	-2	-0.4	-3.1	0.6%	-3	3
CC1Cn2c(nnc2-c2cccc(N)c2)S1 (configuration not stated)	6	3.9	-3.0	-2.0%	-2	6
O=C(CC1NCCNC1=O)Nc1ccc(Cl)c(Cl)c1 (configuration not stated)	7	-0.4	1.7	1.1%	1	0
COc1ccccc1NC(=O)Nc1nnc(Cc2ccc(F)cc2)s1	nt	-0.8	3.0	10%	7	-1
COc1ccc(CN2CCN(Cc3cn(C)nc3-c3ccccc3)CC2CCO)c(C)c1C (configuration not stated)	-22	-0.3	-10	-0.1%	-10	-4
COC(=O)c1c(NC(=O)c2ccco2)sc(C(=O)Nc2ccc(F)cc2)c1C	10	-0.6	1.5	nt	4	-1
NS(=O)(=O)c1ccc(N=Nc2ccc(O)c3ncccc23)cc1	nt	1.0	-13	-1.5%	-38	-97*
Cc1[nH]c(=O)[nH]c(=O)c1NS(=O)(=O)c1ccc2c(c1)CCCC2	-22	-0.4	-0.4	3.4%[38.3 µM]	8	-5
CC1(c2ccc(Cl)cc2)NC(=O)N(CC(=O)N2CCc3ccccc32)C1=O (configuration not stated)	1	12	0.7	11%	-1	-4
O=[N+]([O-])c1ccc2nc(CCCc3nc4ccc([N+](=O)[O-])cc4[nH]3)[nH]c2c1	-3	0.5	-1.8	1.1%	-8	-10
COc1ccc(CC(=O)NCC2CCCN(Cc3cccc(C(F)(F)F)c3)C2)cc1 (configuration not stated)	0	1.1	-3.2	-0.4%	-31	23
Cc1ccc(NC(=O)CSc2n[nH]c(N)n2)cc1S(=O)(=O)N1CCOCC1	-9	0.4	-3.1	1.6%	-7	1
COc1cc2c(cc1OC)C(c1ccccc1OC(C)C)CC(=O)N2 (configuration not stated)	11	0.7	6.3	2.0%	3	5
N#Cc1cn(Cc2ccco2)c(=O)[nH]c1=O	7	0.0	-1.4	5.2%	-21	11
O=C(NCC1CCCO1)c1cnn2c1NC(c1ccccc1)CC2C(F)(F)F (configuration not stated)	-8	0.7	1.5	2.4%[38.3 µM]	-16	4

Structures listed so far marked active in Six1-Eya2 inh.
SMILES | CtBP-E1A blk | D2 agonist | PINK1 expr mod | D2 potentiator | Six1-Eya2 inh
NS(=O)(=O)c1ccc(N=Nc2ccc(O)c3ncccc23)cc1 | nt | -13 | -1.5% | -38 | -97*

Part of the list above with just CtBP-E1A blk.
SMILES	CtBP-E1A blk
COc1ccc(CC(=O)NCC2CCCN(Cc3cccc(C(F)(F)F)c3)C2)cc1 (configuration not stated)	0
Cc1ccc(NC(=O)CSc2n[nH]c(N)n2)cc1S(=O)(=O)N1CCOCC1	-9
COc1cc2c(cc1OC)C(c1ccccc1OC(C)C)CC(=O)N2 (configuration not stated)	11
N#Cc1cn(Cc2ccco2)c(=O)[nH]c1=O	7

Source: PubChem (National Center for Advancing Translational Sciences (NCATS))
